Screening data (PubChem)
GLA inh pH 4.5 = alpha-galactosidase A (human) inhibition, pH 4.5 | P06280 | purified enzyme, 4-MU-alpha-Gal fluorescence, pH 4.5 | activity change, negative = inhibition, % at 105 µM | 230,000 tested, under 10 active | AID 1467; inconclusive = small, poorly fitted or top-dose-only inhibition, or a rising curve; inactive = flat fitted curve, though single readings scatter; no compound was filed as active;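 also: 0% = full activity with enzyme and -100% = basal without enzyme; dose as in the result columns while the protocol names 77 µM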
Target sequence (P06280 whole entry, looked up): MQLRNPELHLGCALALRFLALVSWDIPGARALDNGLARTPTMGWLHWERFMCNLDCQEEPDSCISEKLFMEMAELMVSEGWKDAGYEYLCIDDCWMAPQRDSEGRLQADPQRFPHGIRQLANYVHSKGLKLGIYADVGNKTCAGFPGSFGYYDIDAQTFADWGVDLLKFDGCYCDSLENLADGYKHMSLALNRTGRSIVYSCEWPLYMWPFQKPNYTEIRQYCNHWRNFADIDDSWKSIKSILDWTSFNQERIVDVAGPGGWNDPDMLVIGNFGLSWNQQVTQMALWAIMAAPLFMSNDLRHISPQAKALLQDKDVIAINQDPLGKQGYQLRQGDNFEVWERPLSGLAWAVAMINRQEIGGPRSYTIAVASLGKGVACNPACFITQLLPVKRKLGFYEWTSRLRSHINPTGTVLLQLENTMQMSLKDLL
miR-21 reporter = raises the signal of a miR-21 reporter | HeLa miR-21 FLuc reporter, luciferase, 48 h | Potency, µM (titrated, usually from 38.3 µM), inactives show at the highest dose reporter change, positive = more light | 340,000 tested, under 10 active; active = well fitted rising curve with a large enough effect; inconclusive = small, poorly fitted or top-dose-only effect; inactive = no such curve, though single readings can be large or run the other way;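 also: % of control where 0% means no effect; miR-21 action dims this reporter so a rising signal means less miR-21 action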
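HeLa cells stably expressing CMV-driven firefly luciferase with a downstream miR-21 binding sequence, endogenously expressing miR-21, were treated with titrations (up to about 40uM final) for 48 hours at 37 degree Celsius. Luciferase luminescence was read after lysis.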
Rango complex inh = prevents formation of the Rango-importin beta complex; Potency, µM (doses to about 92.2 µM), for inactives: at the highest dose inhibition of complex formation; Rango CFP/YFP FRET sensor + importin beta, 45 min; 0.031% of 340,000 active; active = rising FRET ratio curve, often small or poorly fitted; inconclusive = mostly compound fluorescence or quenching in the first reads; inactive = flat curves in all reads;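 also: potency is read from the fitted curve at half-maximal effect; 0% = DMSO wells and 100% = buffer wells lacking importin beta; nearly all actives have a fitted effect of over 15% in size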
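Inhibition scored from the CFP 486 nm/YFP 530 nm FRET ratio 45 min after adding 0.125 microM importin beta to 50 nM Rango biosensor preincubated 5 min with compound (room temperature, PBS with DTT, Tween-20, BSA). No-importin wells as positive control.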
Rango dissoc inh = inhibitors of RanGTP-induced Rango-importin beta complex dissociation; 0.071% of 340,000 active; Biochemical FRET Rango-importin beta, RanGTP-induced dissociation; AID 540253; O95149+P62826; Potency, µM (highest dose often 46.1 µM), inactives show at the highest dose activity change, negative = inhibition; active means falling FRET ratio curve, often poorly fitted, with flat reads before Ran was added; inconclusive means other falling curves, or compound fluorescence or quenching; inactive means flat or rising ratio curve;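 also: potency is read from the fitted curve at half-maximal effect; % of control where 0% means no effect; nearly all actives have a fitted effect of over 45% in size; -100% = wells without RanGTP and RCC1; the record marks most hits as doubtful in a second field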
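Compounds preincubate 5 min with complex of recombinant Rango and importin beta in PBS with 1 mM DTT. Ran (0.6 uM) loaded with 2 mM GTP plus 0.2 uM RCC1 starts dissociation; FRET is recorded 45 min later.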
Numbers without * were called inactive; ? = inconclusive; / = no result given.

SMILES	GLA inh pH 4.5	miR-21 reporter	Rango complex inh	Rango dissoc inh
COCCNC(=O)/C(C#N)=C/c1cccs1	-27	-20%	-1.7%	-4%
CC(C)CC(NC(=O)C1CCCCC1)C(=O)NC(C)c1ccccc1 (stereo not given)	/	-4%	-2.3%	0%
O=C(CSc1ccc(F)cc1)NNC(=O)c1ccccc1Br	/	-1%	-0.9%	-17%
Cc1cc(O)c(C(C)C)cc1NS(=O)(=O)c1ccccc1	-2	6%	-1.4%	-9%
CCOc1ccccc1/C=N/Nc1ccccc1[N+](=O)[O-]	3	-7%	1.2%	-11%
COc1ccc(C2CC(C)=C(C#N)S(=O)(=O)C2C#N)cc1 (stereo not given)	-8	0%	?	?
Cc1cc(/C=C(\C#N)C(=O)Nc2ccc(F)cc2)c(C)n1-c1ccc(N2CCOCC2)c([N+](=O)[O-])c1	2	-1%	-0.6%	15%
CN=C(c1ccco1)n1c(=S)nc(-c2ccco2)n(C)c1=S	-4	-5%	1.2%	-4%
O=C(/C=C/c1cc([N+](=O)[O-])ccc1OC(F)F)NCc1ccc(F)cc1	-2	1%	0.9%	-13%
CCS(=O)(=O)c1ccc2c(c1)NC(=O)C(CCCl)O2 (stereo not given)	-5	0%	0.5%	14%
COC(=O)C1CSc2[nH]c(=O)sc2C1c1ccccc1 (stereo not given)	8	-8%	-0.1%	-15%
COc1ccc(CNC(=O)COC(=O)C(CCSC)N2C(=O)c3ccccc3C2=O)cc1 (stereo not given)	/	/	-5.2%	1%
Cc1ccc(N(C(=O)c2ccco2)C(C(=O)NC2CCCC2)c2cccnc2)cc1C (stereo not given)	/	0%	-0.4%	-1%
CCOC(=O)c1ccccc1NC(=O)CSc1nnc(COc2ccccc2)n1CC	9	11%	?	-3%
CCN1CCN(S(=O)(=O)c2cc3c(cc2Cl)NC(=O)CO3)CC1	/	0%	-1.6%	-16%
COc1ccccc1OCC(=O)Nc1ccc(NC(=O)COc2ccccc2OC)cc1	/	4%	-0.6%	-17%
c1ccc(C2CC(c3cccs3)n3nnnc3N2)cc1 (stereo not given)	1	-6%	0.6%	-11%
Cc1ccc(COc2ccc(/C=N/NC(=O)c3ccc(CN4CCOCC4)cc3)cc2)cc1	3	-18%	-1.9%	8%
Cc1cc2nc(-c3ccc(SCc4ccc(C(=O)O)cc4)nc3)[nH]c2cc1C	6	-46%	10%	-19%
Cn1cnnc1SCc1nc(N)nc(Nc2ccccc2)n1	-22	-23%	?	1%
CN=C1S/C(=C\c2ccc(N3CCCC3)c(F)c2)C(=O)N1C	4	-36%	?	?
CCOC(=O)c1c(S(=O)(=O)Nc2ccc(C)cn2)c(C)n(C)c1C	/	-5%	-2.5%	-5%
O=c1c2sc3nc(N4CCOCC4)c4c(c3c2ncn1-c1ccccc1)CCCC4	9	9%	-0.2%	17%
CCOC(=O)CCc1c(C)nc2c(c(C)nn2-c2ccccc2)c1C	/	-1%	1.3%	-1%
Cc1ccc(-c2nnn(CCC(=O)N3CCCCC3C)n2)cc1 (stereo not given)	4	-41%	-0.4%	-6%
COc1ccc(C(=O)NCc2nnc(SCC(=O)Nc3ccccc3OC)n2C)cc1	6	-12%	-2.1%	-8%
Nc1nccnc1C(=O)OCC(=O)Nc1cccc(S(=O)(=O)N2CCCCC2)c1	14	-5%	3.2%	13%
O=C(O)c1cn(Cc2ccccc2)c2ccc(Cl)cc2c1=O	/	/	0.7%	2%
CC(=O)N/N=C/c1cc(C(C)C)cc(/C=N/NC(C)=O)c1O	-7	2%	?	?
C=CCN(CC=C)C(=O)c1ccc(OC2CCN(Cc3ccccn3)CC2)cc1	1	-9%	-0.5%	7%
CCCC(=O)C1=C(O)C(C(=O)OC)C(C)(C)CC1=NC(C)C (stereo not given)	6	-3%	-0.1%	3%
Nc1ccc(C(=O)OCC(=O)NC(=O)c2ccccc2)cc1[N+](=O)[O-]	/	/	0.5%	-13%
CCCCn1c(N)c(N(CC(C)C)C(=O)CSc2nnc(-c3ccc(Cl)cc3)o2)c(=O)[nH]c1=O	/	/	3.0%	0%
Cc1ccc(C(=O)Nc2nnc(C)s2)o1	2	-13%	-4.7%	1%
Cc1ccc(C2C(C(=O)c3cccs3)=C(O)C(=O)N2CCN2CCOCC2)o1 (stereo not given)	-3	-13%	1.3%	-30%
Cc1cnc(CN(C)Cc2c(C(=O)N3CCCCCCC3)nc3ccc(Cl)cn23)[nH]1	/	-5%	3.1%	-5%
Cn1c(SCc2cccc([N+](=O)[O-])c2)nc2ccccc2c1=O	/	/	1.0%	-7%
Cc1cccc(C)c1NC(=O)c1sccc1SCc1cccc(C(F)(F)F)c1	-13	11%	0.4%	4%
O=S1(=O)c2ccc(Br)cc2N2CCC[C@@H]2CN1Cc1ccc(Cl)cc1	/	/	-2.2%	9%
COc1ccc(S(=O)(=O)N(CC(=O)O)Cc2ccccc2)cc1OC	-2	-8%	-1.7%	-3%
COc1cccc2sc(NC(=O)c3ccc(S(=O)(=O)N4CCOCC4)cc3)nc12	-29	9%	3.5%	-3%
CN(C(=O)COC(=O)Cn1c(C(F)(F)F)nc2ccccc21)c1c(N)n(Cc2ccccc2)c(=O)[nH]c1=O	/	-1%	-1.4%	9%
COc1cc(CNc2ccc(N3CCCC3)cc2)ccc1OCc1ccccc1F	2	-40%	-3.0%	5%
CC1CCN(CCOc2ccc(Cl)c(Cl)c2)CC1	-22	-16%	0.0%	-1%
Nc1ccc2c(c1)COc1ccccc1O2	2	-25%	0.4%	11%
CC(C)(C)c1ccc(C(=O)/C(C#N)=C/c2cccs2)cc1	-3	-8%	-1.0%	-21%
CCc1nc(SCc2cc(Cl)ccc2OC)n[nH]1	4	-10%	-3.1%	0%
CC(C)(C)SC(=O)CC1NS(=O)(=O)OC2CCCCC12 (stereo not given)	/	-4%	-0.6%	1%
CCN(CC)S(=O)(=O)c1ccc(-c2nnc(SCC(=O)N3CCOCC3)o2)cc1	-17	-13%	4.0%	8%
Cc1nn(-c2ccccc2)c2sc(C(=O)OCC(=O)N3CCCCC3)cc12	3	3%	4.0%	1%
O=C1C(=O)N(CCN2CCOCC2)C(c2cccc(Cl)c2)/C1=C(\O)c1ccc2c(c1)OCCO2 (stereo not given)	/	-6%	0.0%	-2%
CN(Cc1ccccc1)c1ccc(C(CC(N)=O)NC(=O)Cc2cccc3ccccc23)cc1[N+](=O)[O-] (stereo not given)	/	8%	-0.5%	-6%
COc1cc(COC(=O)Oc2ccc(CNC(C)=O)cc2OC)c([N+](=O)[O-])cc1OC	/	/	-0.1%	-7%
COC(=O)Cc1c(C)[nH]n(-c2cc(Cl)cc(Cl)c2)c1=O	6	0%	12%	-16%
COc1ccc(Cl)cc1NC(=O)CN(C)C(=O)CCC(=O)c1cc(C)sc1C	/	/	6.5%	25%
COc1cc(CC(=O)Nc2nc(-c3ccccc3)c(C(C)=O)s2)cc(OC)c1OC	/	29%	-1.5%	16%
Cc1ccc(S(=O)(=O)CCN2CCN(c3ccccc3)CC2)cc1	/	-1%	0.1%	-4%
CCN(CC)CC(=O)Nc1nn(-c2ccccc2)nc1C(N)=O	10	-4%	-2.7%	4%
Cc1ccccc1N=Nc1c(C)[nH]n(-c2ccccc2)c1=O	-17	0%	-1.7%	-21%
CCCCNC(=O)c1onc(CCl)c1C(=O)OC	-1	23%	-0.2%	1%

A portion from further up, as a working copy:
SMILES	GLA inh pH 4.5	miR-21 reporter	Rango complex inh	Rango dissoc inh
Cc1ccccc1N=Nc1c(C)[nH]n(-c2ccccc2)c1=O	-17	0%	-1.7%	-21%
CCCCNC(=O)c1onc(CCl)c1C(=O)OC	-1	23%	-0.2%	1%

Part of the list above, with bars between the fields:
SMILES | GLA inh pH 4.5 | miR-21 reporter | Rango complex inh | Rango dissoc inh
Nc1ccc2c(c1)COc1ccccc1O2 | 2 | -25% | 0.4% | 11%
CC(C)(C)c1ccc(C(=O)/C(C#N)=C/c2cccs2)cc1 | -3 | -8% | -1.0% | -21%
CCc1nc(SCc2cc(Cl)ccc2OC)n[nH]1 | 4 | -10% | -3.1% | 0%
CC(C)(C)SC(=O)CC1NS(=O)(=O)OC2CCCCC12 (stereo not given) | / | -4% | -0.6% | 1%
CCN(CC)S(=O)(=O)c1ccc(-c2nnc(SCC(=O)N3CCOCC3)o2)cc1 | -17 | -13% | 4.0% | 8%
Cc1nn(-c2ccccc2)c2sc(C(=O)OCC(=O)N3CCCCC3)cc12 | 3 | 3% | 4.0% | 1%
O=C1C(=O)N(CCN2CCOCC2)C(c2cccc(Cl)c2)/C1=C(\O)c1ccc2c(c1)OCCO2 (stereo not given) | / | -6% | 0.0% | -2%
CN(Cc1ccccc1)c1ccc(C(CC(N)=O)NC(=O)Cc2cccc3ccccc23)cc1[N+](=O)[O-] (stereo not given) | / | 8% | -0.5% | -6%
COc1cc(COC(=O)Oc2ccc(CNC(C)=O)cc2OC)c([N+](=O)[O-])cc1OC | / | / | -0.1% | -7%
COC(=O)Cc1c(C)[nH]n(-c2cc(Cl)cc(Cl)c2)c1=O | 6 | 0% | 12% | -16%
COc1ccc(Cl)cc1NC(=O)CN(C)C(=O)CCC(=O)c1cc(C)sc1C | / | / | 6.5% | 25%
COc1cc(CC(=O)Nc2nc(-c3ccccc3)c(C(C)=O)s2)cc(OC)c1OC | / | 29% | -1.5% | 16%
Cc1ccc(S(=O)(=O)CCN2CCN(c3ccccc3)CC2)cc1 | / | -1% | 0.1% | -4%

(listing goes on)
SMILES	GLA inh pH 4.5	miR-21 reporter	Rango complex inh	Rango dissoc inh
CCCC1(c2ccccc2)NC(=O)N(CC(=O)Nc2ccccc2C(F)(F)F)C1=O (stereo not given)	/	0%	-1.9%	-14%
O=C(c1ccco1)N1CCN(C(c2ccccc2Cl)c2nnnn2Cc2cccs2)CC1 (stereo not given)	10	5%	3.8%	4%
O=C(c1ccc2ccccc2c1)N1CCCC1	/	-7%	-0.2%	26%
CCCN(CC(=O)Nc1ccc(C(N)=O)cc1)CC(=O)Nc1cc(Cl)ccc1Cl	6	-15%	0.5%	-11%
O=C(COC(=O)COc1ccccc1)Nc1ncc([N+](=O)[O-])s1	/	/	3.2%	-3%
Cn1c(=O)c(=O)n(C)c2cc(N3CCCCC3)c(NS(=O)(=O)c3ccc([N+](=O)[O-])cc3)cc21	/	0%	-0.1%	0%
S=C1NC(c2ccccc2)N2C(=S)NC(c3ccccc3)N12 (stereo not given)	3	-18%	1.2%	-15%
FC(F)Sc1ccc(NC(=S)NC2CCCCC2)cc1	-5	9%	-4.3%	0%
O=C(Nc1cccc([N+](=O)[O-])c1)Nc1cnccn1	/	-6%	-2.3%	2%
N#CC(=C(c1ccccc1)c1ccccc1)c1ccccc1	/	/	0.3%	-6%
CCCN1C(=O)/C(=C2/C=Cc3ccccc3N2CC)SC1=S	-3	0%	-1.2%	8%
CCOc1ccc(OCCC(=O)OCC(=O)Nc2ccc3c(c2)OCCO3)cc1	/	/	-2.4%	-5%
Cn1c(CNC(=O)c2ccco2)nnc1SCC(=O)c1ccccc1	5	2%	0.9%	-6%
O=C(Nc1nnc(COc2ccc(F)cc2)s1)c1cccs1	2	-3%	0.7%	9%
COc1cc(C(=O)/C=C/Nc2ccc(NC(C)=O)cc2)cc(OC)c1OC	-9	17%	?	?
CCOc1ccc(NC(=O)c2ccc(-c3csc(C)n3)cc2)cc1	/	-4%	0.4%	21%
COc1ccc(C(=O)NCC(c2cccnc2)N2CCN(c3ccccc3OC)CC2)cc1OC (stereo not given)	7	-4%	0.4%	-6%
Cc1ccc(CNS(=O)(=O)NCc2ccc(Cl)cc2)cc1	3	-3%	-2.5%	-4%
Cc1ccc2nc(C(F)OC(F)(F)F)[nH]c2c1 (stereo not given)	8	-6%	-0.8%	-17%
CCOc1cc(C(C(=O)NCC2CCCO2)N(C(=O)Cn2nnc3ccccc32)c2ccc(NC(C)=O)cc2)ccc1O (stereo not given)	/	0%	0.2%	7%
O=C(Nc1cccnc1)/C(N=Nc1ccc(Cl)c(C(F)(F)F)c1)=C(\O)c1ccccc1	1	2%	-1.1%	11%
CN(C)c1nc(C(=O)O)nc(N2CCOCC2)n1	-4	4%	0.9%	22%
CCOc1ccccc1NC(=O)NCc1ccc2c(c1)OCO2	/	-10%	2.0%	0%
Cc1ccc(S(=O)(=O)N2CCOCC2)cc1C(=O)NCc1cn2ccsc2n1	1	-4%	4.0%	10%
O=C(NCCNC(=O)c1cnccn1)c1ccc(Cl)c(Cl)c1	/	1%	0.0%	18%

An excerpt, so the mix of outcomes need not match the whole.
